Compound activity as filed in PubChem.
GLA inh pH 4.5: qHTS Assay for Inhibitors of Human alpha-Galactosidase at pH 4.5; Alpha-galactosidase A (Homo sapiens), P06280; purified enzyme, 4-MU-alpha-Gal fluorescence, pH 4.5; activity change, negative = inhibition, % at 105 µM; 230,000 tested, under 10 active; AID 1467, 2008; inconclusive = small, poorly fitted or top-dose-only inhibition, or a rising curve; inactive = flat fitted curve, though single readings scatter; no compound was filed as active;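 also: 0% = full activity with enzyme and -100% = basal without enzyme; dose as in the result columns while the protocol names 77 µM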
Target sequence (P06280 whole entry, looked up): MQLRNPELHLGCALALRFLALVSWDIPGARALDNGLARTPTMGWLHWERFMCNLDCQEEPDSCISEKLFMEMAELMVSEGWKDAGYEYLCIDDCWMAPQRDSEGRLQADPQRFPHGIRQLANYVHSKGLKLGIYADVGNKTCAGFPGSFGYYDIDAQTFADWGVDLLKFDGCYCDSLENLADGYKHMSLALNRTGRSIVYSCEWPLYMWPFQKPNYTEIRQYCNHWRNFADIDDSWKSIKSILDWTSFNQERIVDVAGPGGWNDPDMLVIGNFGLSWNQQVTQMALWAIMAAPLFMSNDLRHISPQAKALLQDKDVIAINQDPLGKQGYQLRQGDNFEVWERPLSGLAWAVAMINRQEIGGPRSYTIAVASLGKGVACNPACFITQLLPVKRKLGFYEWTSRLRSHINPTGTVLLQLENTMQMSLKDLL
Rango release inh: qHTS Assay for Inhibitors of RanGTP induced Rango (Ran-regulated importin-beta cargo) - Importin beta complex dissociation. actives 0.071% (n = 340,000). Biochemical FRET Rango-importin beta, RanGTP-induced dissociation. Potency, µM (highest dose often 46.1 µM), for the others: at the highest dose activity change, negative = inhibition; active means falling FRET ratio curve, often poorly fitted, with flat reads before Ran was added; inconclusive means other falling curves, or compound fluorescence or quenching; inactive means flat or rising ratio curve;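 also: potency is read from the fitted curve at half-maximal effect; % of control where 0% means no effect; nearly all actives have a fitted effect of over 45% in size; -100% = wells without RanGTP and RCC1; the record marks most hits as doubtful in a second field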
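Rango (0.1 uM)–importin beta (0.25 uM) complex; RanGTP-RCC1 trigger; 45 min RT; CFP/YFP FRET read.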
Rango complex inh: qHTS Assay for Inhibitors of Rango (Ran-regulated importin-beta cargo) - Importin beta complex formation; actives 0.031% (n = 340,000); Importin subunit beta-1 (Homo sapiens), Q14974; Rango CFP/YFP FRET sensor + importin beta, 45 min; AID 540263, 2011; Potency, µM (top dose mostly 92.2 µM), inactives show at the highest dose inhibition of complex formation; active = rising FRET ratio curve, often small or poorly fitted; inconclusive = mostly compound fluorescence or quenching in the first reads; inactive = flat curves in all reads;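 also: potency is read from the fitted curve at half-maximal effect; 0% = DMSO wells and 100% = buffer wells lacking importin beta; nearly all actives have a fitted effect of over 15% in size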
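Inhibition scored from the CFP 486 nm/YFP 530 nm FRET ratio 45 min after adding 0.125 microM importin beta to 50 nM Rango biosensor preincubated 5 min with compound (room temperature, PBS with DTT, Tween-20, BSA). No-importin wells as positive control.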
miR-21 FLuc: qHTS Assay for Modulators of miRNAs and/orActivators of miR-21; HeLa miR-21 FLuc reporter, luciferase, 48 h; Potency, µM (doses to about 38.3 µM), for the others: at the highest dose reporter change, positive = more light; 340,000 tested, under 10 active; active = well fitted rising curve with a large enough effect; inconclusive = small, poorly fitted or top-dose-only effect; inactive = no such curve, though single readings can be large or run the other way;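 also: % of control where 0% means no effect; miR-21 action dims this reporter so a rising signal means less miR-21 action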
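Luminescence from a firefly luciferase reporter carrying a miR-21 binding site downstream, stably expressed under a CMV promoter in HeLa cells that make miR-21 endogenously, reports miRNA modulation after 48 h compound exposure up to approximately 40uM final.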
An asterisk follows results filed as active; ? = inconclusive; / = no result given. An excerpt; rates above refer to the full screens.

SMILES	GLA inh pH 4.5	Rango release inh	Rango complex inh	miR-21 FLuc
COc1ccc(CCN2C(=O)C3C4CCC(C4=C(C)C)C3C2=O)cc1OC (stereo not given)	-2	2%	5.6%	-1%
Cc1nn(CC#N)c(=O)n1N(C)c1ncc(C(F)(F)F)cc1Cl	6	-27%	?	-1%
Cc1nc(Nc2ccc3c(c2)OCCO3)c2c(C)c(C)sc2n1	-5	-28%	-2.4%	-26%
C/C(N)=C(/C#N)C(=O)COC(=O)c1cc(S(=O)(=O)N2CCCCC2)ccc1C	0	1%	-0.9%	-5%
CCOC(=O)CC(=O)Nc1c(C)cc(C)cc1C	-5	-7%	1.8%	-1%
COc1ccc(C2=NOC(Cn3nc(-c4ccccc4)cc3C(=O)NCc3ccc(C)cc3)C2)cc1 (stereo not given)	/	9%	-2.2%	/
Cc1cccc2cc(CN(CC3CCCO3)C(=O)NC3CCCCC3)c(=O)[nH]c12 (stereo not given)	-3	-5%	2.6%	-12%
C=CCOc1nc2c(c(=O)n(C)c(=O)n2C)n1C	-2	17%	-7.0%	-4%
C[C@H]1CN([C@@H](C)CO)C(=O)c2cccc(NC(=O)C3CC3)c2O[C@H]1CN(C)Cc1ccc(C(F)(F)F)cc1	/	-3%	-2.7%	/
COc1ccccc1CN1CC(C(=O)NC2CCCCC2)CC1=O (stereo not given)	2	-3%	3.1%	-8%
CN(C)C(=O)c1ccc(-n2nc(C(F)(F)F)c3c2CCCC3)cc1	-5	2%	-2.1%	-14%
CCCCN1C=C(C(=O)OCC)C(=O)CC1	/	-15%	0.9%	/
Cc1sc2nc3c(C(=O)N4CCN(c5ccccn5)CC4)cccn3c(=O)c2c1C	2	/	/	-2%
O=C1CC(C(=O)N2CCN(S(=O)(=O)c3cccc(F)c3)CC2)CN1Cc1ccccc1Cl (stereo not given)	/	-28%	-1.7%	/
CC(C)=CC(=O)Nc1c(C)cc(C)cc1Cl	5	14%	-1.1%	1%
O=C(c1cc2ccccc2cc1O)N1CCCC(C(F)(F)F)C1 (stereo not given)	/	-10%	-0.1%	-5%
CCN(C[C@H]1N[C@@](Cc2ccccc2)(C(=O)OC)[C@H]2C(=O)N(C)C(=O)[C@@H]12)C(=O)Nc1ccc(C(F)(F)F)cc1	/	6%	-1.8%	/
CC(=O)c1sc(NC(=O)c2cc3c(C)nn(-c4ccccc4)c3s2)nc1C	-13	-26%	-5.2%	-4%
O=C(CNCC1CCCO1)Nc1ccc([N+](=O)[O-])cc1C(=O)Nc1ccccc1F (stereo not given)	6	-9%	0.7%	15%
Cc1ccc(/C(N)=N/OC(=O)N2CCOCC2)cc1	6	-5%	-0.1%	-6%
COc1ccc(Cl)cc1NC(=O)N(C)Cc1c(C)nn(C)c1C	3	11%	-1.4%	-14%
Fc1ccc(OCc2nn[nH]n2)c(F)c1	/	0%	0.7%	0%
COc1ccc(-c2noc(=O)n2Cc2ccc(C#N)cc2)cc1	/	7%	-0.1%	4%
COc1ccc(C(=O)/C=C/Nc2ccc(S(=O)(=O)Nc3cccc(C(C)=O)c3)cc2)cc1	-11	?	?	0%
Cc1c(C(=O)N2CCCCC2)c(S(=O)(=O)N2CCN(c3ccc(F)cc3)CC2)c(C)n1C	/	-11%	-0.4%	-2%

An excerpt from above in order of count of non-hydrogen atoms, rising:
SMILES	GLA inh pH 4.5	Rango release inh	Rango complex inh	miR-21 FLuc
CCCCN1C=C(C(=O)OCC)C(=O)CC1	/	-15%	0.9%	/
O=C(c1cc2ccccc2cc1O)N1CCCC(C(F)(F)F)C1 (stereo not given)	/	-10%	-0.1%	-5%
C/C(N)=C(/C#N)C(=O)COC(=O)c1cc(S(=O)(=O)N2CCCCC2)ccc1C	0	1%	-0.9%	-5%
O=C(CNCC1CCCO1)Nc1ccc([N+](=O)[O-])cc1C(=O)Nc1ccccc1F (stereo not given)	6	-9%	0.7%	15%
CCN(C[C@H]1N[C@@](Cc2ccccc2)(C(=O)OC)[C@H]2C(=O)N(C)C(=O)[C@@H]12)C(=O)Nc1ccc(C(F)(F)F)cc1	/	6%	-1.8%	/

Carrying on.
SMILES	GLA inh pH 4.5	Rango release inh	Rango complex inh	miR-21 FLuc
O=C(c1oc(=O)c2ccccc2c1-c1ccccc1)N1CCC(O)CC1	8	10%	1.8%	-22%
COc1cc(CCC(C)NCc2ccccc2)ccc1O (stereo not given)	/	14%	0.9%	-8%
COc1ccc(OC)c(Nc2nc(NCCCN(C)C)nc(N)c2[N+](=O)[O-])c1	-7	20%	5.3%	-2%
COc1ccc(-c2noc(N3CCC(C(=O)Nc4ccc(F)cc4F)CC3)n2)cc1	/	-5%	-4.4%	-3%
O=C(NCCc1ccccc1)c1c(F)c(F)c(F)c(F)c1F	-1	-4%	-0.2%	-9%
COc1ccc(N=c2cc(-c3ccc(OC)cc3)oc3ccccc23)cc1	3	9%	0.8%	-24%
Cc1ccc(C)c(NS(=O)(=O)c2ccc(OCC(=O)NCc3ccco3)cc2)c1	3	-12%	-2.5%	3%
O=c1c2ccccc2nc(SCc2ccc([N+](=O)[O-])cc2)n1-c1ccc(Cl)cc1	-1	1%	-4.3%	5%
O=C(O)CN1CCN(Cc2ccccc2F)C1=O	11	7%	-1.9%	8%
Cc1ccc(C(=O)NCC(=O)NCC(c2cccs2)N(C)C)cc1C (stereo not given)	/	-5%	-0.5%	/
Cc1ccc(NC(=O)NCC2CCN(Cc3cc(C)ccc3Cl)CC2)c(C)c1	-5	-7%	-2.5%	1%
Cc1ccnc(NC(=O)Nc2ccc(Br)cc2Cl)c1	-4	1%	-3.7%	-53%
Nc1nonc1-n1nnc(C(=O)N/N=C/c2c(Cl)cccc2Cl)c1CSC1=NCCS1	0	14%	-2.5%	-3%
Cc1cc(C(=O)NC(C)C2CCCO2)cs1 (stereo not given)	6	-1%	5.0%	-4%
COc1ccc(S(=O)(=O)N2CCCC2CNC(=O)C(=O)Nc2cccc(F)c2)cc1 (stereo not given)	/	14%	1.0%	/
COc1ccc2c(CC(=O)N[C@@H](Cc3ccccc3)C(=O)O)cc(=O)oc2c1C	/	1%	0.8%	-1%
COc1ccc2c(c1OC)C(=O)N1C(C(=O)O)Cc3c([nH]c4ccccc34)C21 (stereo not given)	8	?	?	-11%
COc1ccc(N(C)C(=O)Cc2c(C(=O)O)[nH]c3ccccc23)c(OC)c1	5	2%	3.9%	19%
COc1ccc(CN(C)C(=O)c2cccc(S(=O)(=O)N3CCN(c4ccccc4)CC3)c2)c(OC)c1OC	/	-2%	1.2%	/
Cc1cccc(NS(=O)(=O)c2ccc(C(=O)NCC(c3ccco3)N3CCCCC3)cc2)c1C (stereo not given)	/	-8%	2.4%	/
COc1cc(/C=C(\NC(C)=O)C(=O)NC(C)(C)C)ccc1OC(C)=O	-11	2%	1.3%	-6%
O=C(Cc1ccccc1[N+](=O)[O-])NC1CC1	-2	-2%	0.2%	-4%
COc1ccc(/C=N/Nc2nc(-c3cccnc3)nc3ccccc23)cc1OC	-9	-6%	0.8%	4%
CCC(=O)Nc1nc2ccccc2n1Cc1ccccc1Cl	-4	-1%	-1.5%	-5%
CC(=O)N1CCCC1C(=O)O (stereo not given)	-7	11%	?	/

(cont.)
SMILES	GLA inh pH 4.5	Rango release inh	Rango complex inh	miR-21 FLuc
CCCC(CCC(=O)Nc1nccs1)C(=O)O (stereo not given)	14	3%	-1.1%	-1%
O=C(O)c1cccc(S(=O)(=O)Nc2ccc3c(c2)OCO3)c1	2	-1%	-0.1%	-1%
Cc1ccc(C)c(NC(=O)c2cc3c([nH]c4ccccc43)c(C)n2)c1	3	8%	0.5%	-4%
CCOC(=O)COc1cc(Br)c(C2NC(=O)NC(C)=C2C(C)=O)cc1OCC (stereo not given)	11	28%	-0.3%	0%
CCOc1cnc(-c2c(-c3c(F)cccc3Cl)noc2C)o1	-7	0%	4.5%	-1%
COc1cc(C2C(C#N)=C(N)N(N(C)C)C3=C2C(=O)CC(C)(C)C3)cc(OC)c1OC (stereo not given)	/	-14%	0.0%	-4%
O=S1(=O)CC=C(CSC(=S)NC2CCS(=O)(=O)C2)C1 (stereo not given)	9	-10%	5.1%	0%
O=c1cc(CO)oc(C(Nc2ccccn2)c2ccsc2)c1O (stereo not given)	-9	/	/	-2%
Cc1ccc(C2=NN=C(NC(=O)C(F)(F)F)SC2)cc1	4	-7%	-1.9%	-35%
Cc1ccc2c(SCC(=O)NCc3ccco3)nc(-c3ccc(F)cc3)nc2c1	1	6%	-3.6%	-1%
Brc1ccccc1CN1CCC(Cc2ccccc2)CC1	/	-4%	5.4%	6%
NS(=O)(=O)c1ccc(CCNC(=O)CCNC(=O)c2ccco2)cc1	/	13%	-2.5%	0%
CCC1CN(C(=O)Nc2cccc(C)c2)c2cc(C)ccc2O1 (stereo not given)	6	-9%	1.0%	-2%
Cc1[nH]c(=O)[nH]c(=O)c1S(=O)(=O)N1c2ccc(F)cc2CCC1C (stereo not given)	-1	1%	0.9%	-7%
Cc1cccc(N2CCN(C(=O)C3CCN(c4nnc(-n5cccc5)s4)CC3)CC2C)c1 (stereo not given)	-1	13%	0.3%	12%
Cc1ccc(S(=O)(=O)N2CCCC(C(=O)NCc3cccnc3)C2)cc1Cl (stereo not given)	-6	-3%	-1.0%	-8%
Cc1onc(-c2ccccc2Cl)c1C(=O)OCC(=O)Nc1cccc(S(=O)(=O)N2CCOCC2)c1	-8	-9%	1.8%	15%
C#CCSc1nnc(C)c(C)n1	/	-1%	-1.1%	/
COc1ccc(C(=O)Nc2ccc(S(=O)(=O)N(C)c3ccccc3)cc2)cc1	/	14%	10.0%	/
OCCCNc1ncnc2oc(-c3ccccc3)c(-c3ccccc3)c12	/	-18%	1.9%	-16%
N#Cc1nc(COc2ccccc2)oc1N1CCC(Cc2ccccc2)CC1	4	14%	?	-6%
Cc1nn(CCc2nn[nH]n2)c2nc(-c3ccc(C4CCCCC4)cc3)cc(C(F)(F)F)c12	-2	0%	3.9%	0%
CN(C)C(=O)CCC(=O)N1CCCCC1C(=O)Nc1ccc(Oc2ccccc2F)cc1 (stereo not given)	/	-14%	-4.6%	9%
O=C(O)c1cc(-c2ccco2)nc2ccccc12	?	-21%	-1.2%	-4%
O=C(CCCCCNC(=O)c1ccccc1)N/N=C/c1ccc(F)cc1	2	5%	-0.1%	-10%
COc1ccc(C(=O)NCc2nnc(SCC(=O)NCc3ccco3)o2)cc1	/	-3%	-1.3%	1%
Cc1cccc(C(=O)N2CCCC(CCC(=O)N3CCN(c4ccccn4)CC3)C2)c1C (stereo not given)	/	-2%	0.5%	24%
CCN1CCN(Cc2nnc(-c3ccccc3)o2)CC1	/	-9%	-4.3%	-3%

Reformatted with each value named: part of the list above
smiles: OCCCNc1ncnc2oc(-c3ccccc3)c(-c3ccccc3)c12
- GLA inh pH 4.5: /
- Rango release inh: -18%
- Rango complex inh: 1.9%
- miR-21 FLuc: -16%
smiles: O=C(O)c1cc(-c2ccco2)nc2ccccc12
- GLA inh pH 4.5: ?
- Rango release inh: -21%
- Rango complex inh: -1.2%
- miR-21 FLuc: -4%
smiles: Cc1ccc2c(SCC(=O)NCc3ccco3)nc(-c3ccc(F)cc3)nc2c1
- GLA inh pH 4.5: 1
- Rango release inh: 6%
- Rango complex inh: -3.6%
- miR-21 FLuc: -1%
smiles: O=S1(=O)CC=C(CSC(=S)NC2CCS(=O)(=O)C2)C1 (stereo not given)
- GLA inh pH 4.5: 9
- Rango release inh: -10%
- Rango complex inh: 5.1%
- miR-21 FLuc: 0%
